# VDR inh = Inhibitors of the vitamin D receptor (VDR): qHTS; VDR-SRC2-3 peptide fluorescence polarization, 2 h; Potency, µM, inactives show max response, negative = inhibition, hits mostly inhibitors; actives 0.93% (n = 400,000); active = well fitted inhibition curve with a large enough effect; inconclusive = small, poorly fitted or top-dose-only effect, or another doubt; inactive = no such curve, though single readings can be large or run the other way; note: series mostly up to about 120 µM
# Target sequence (P11473 whole entry, looked up): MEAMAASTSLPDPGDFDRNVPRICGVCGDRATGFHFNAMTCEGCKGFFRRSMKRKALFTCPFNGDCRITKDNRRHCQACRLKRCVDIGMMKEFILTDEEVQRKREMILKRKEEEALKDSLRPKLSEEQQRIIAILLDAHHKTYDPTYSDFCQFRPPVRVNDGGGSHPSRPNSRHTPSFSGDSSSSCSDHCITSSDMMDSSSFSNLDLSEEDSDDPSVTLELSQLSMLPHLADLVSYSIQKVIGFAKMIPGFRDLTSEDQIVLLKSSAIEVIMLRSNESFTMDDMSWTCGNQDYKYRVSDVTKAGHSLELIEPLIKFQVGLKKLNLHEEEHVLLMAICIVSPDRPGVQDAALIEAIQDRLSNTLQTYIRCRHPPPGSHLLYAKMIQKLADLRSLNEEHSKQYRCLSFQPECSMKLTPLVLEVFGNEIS
#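 After 23 nl compound addition and a short centrifugation, plates sat for 2 hours at ambient temperature; polarization of fluorescence then indicated loss of VDR binding to peptide SRC2-3.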
# * hit, by the source's call; ? = inconclusive; & = joins results of further samples; [ ] = remark or other dose. % is set by controls: 0 for no effect and ±100 for the full control effect; potency is the fitted concentration of half-maximal effect. An excerpt (hit frequency here may not be typical).
SMILES,VDR inh
NS(=O)(=O)c1ccc(CCNC(=O)c2cccc(OC(F)F)c2)cc1,-18%
O=C(O)CC(NC(=O)COc1ccccc1)c1cccc([N+](=O)[O-])c1 (configuration not stated),-5%
CCCCn1c(N)c(N(CCOC)C(=O)COC(=O)c2ccccc2NCCO)c(=O)[nH]c1=O,-9%
O=C(NCC1OCCc2ccccc21)c1ccco1 (configuration not stated),32%[activator]
CCc1nnc(NC(=O)CSc2nc3c(c(=O)n2C)SC(C)C3)s1 (configuration not stated),-27%
O=C(CCC1CCN(Cc2ccccc2O)CC1)NC1CC1,-1%
COc1ccc(CC2S/C(=N/N=C/c3ccc(O)cc3)NC2=O)cc1 (configuration not stated),13%
CCOc1cc(C)c(C(C)C)cc1S(=O)(=O)N1CCN(C)CC1,3%
Cc1ccc(S(=O)(=O)NNC(=O)c2snnc2C)cc1,-2%
COc1ccccc1CNC(=O)CN(c1ccc(C)cc1)S(=O)(=O)c1c(C)nn(C)c1C,21%
CC(C)CCn1c(=O)c2sccc2n2c(CCCC(=O)NC(C)c3ccccc3)nnc12 (configuration not stated),-2%
CCn1c(=O)n(CC(=O)Nc2cccc(OC)c2)c(=O)c2ccccc21,13%
CCOC(CNC(=O)C(=O)Nc1cc2c3c(c1)CC(=O)N3CCC2)OCC,-5%
Cc1cc2cc3c(cc2nc1SCC(=O)OC(C)C)OCO3,0%
O=C(CS(=O)(=O)c1cn(CC(=O)N2CCCC2)c2ccccc12)Nc1ccccc1F,-24%

# Sorted by count of non-hydrogen atoms (highest first): some entries from above
SMILES,VDR inh
CC(C)CCn1c(=O)c2sccc2n2c(CCCC(=O)NC(C)c3ccccc3)nnc12 (configuration not stated),-2%
O=C(CS(=O)(=O)c1cn(CC(=O)N2CCCC2)c2ccccc12)Nc1ccccc1F,-24%
CCOC(CNC(=O)C(=O)Nc1cc2c3c(c1)CC(=O)N3CCC2)OCC,-5%
CCn1c(=O)n(CC(=O)Nc2cccc(OC)c2)c(=O)c2ccccc21,13%
CCc1nnc(NC(=O)CSc2nc3c(c(=O)n2C)SC(C)C3)s1 (configuration not stated),-27%
O=C(CCC1CCN(Cc2ccccc2O)CC1)NC1CC1,-1%
Cc1ccc(S(=O)(=O)NNC(=O)c2snnc2C)cc1,-2%

# Continued:
SMILES,VDR inh
COc1ccccc1C(=O)Nc1ccc2c(c1)CN(C(=O)CSC)CC2,-2%
COCCCNC(=O)COc1cc(C)c(Cl)c(C)c1,-6%
O=C(Nc1ccc(S(=O)(=O)NC2=NCCCCC2)cc1)c1ccc([N+](=O)[O-])s1,-4%
O=C(Nc1ccc(N2CCOCC2)c(S(=O)(=O)Nc2ccc(Cl)cc2)c1)c1ccc(=O)[nH]n1,3%
CN(C(=O)c1ccc2c(c1)OCO2)C1CCCCC1,-2%
COc1cccc(CNC2CCCc3ccccc32)c1OC (configuration not stated),-2%
CC(=O)Nc1ccc(S(=O)(=O)N(Cc2ccccc2)C(C)C)cc1,-14%
COc1ccc(OC)c(Nc2nc(-c3ccc(O)c(O)c3)cs2)c1,6%
c1ccc(C[n+]2cccc3c4ccccc4ccc32)cc1,2%
CCOc1ccc(-c2nnc(SCC(=O)NCc3ccccc3)o2)cc1,20%
COc1cc(C(C)=O)cc(OC)c1O,-1%&-2%
O=C(NCCCNCCCNC(=O)c1ccccn1)c1ccccn1,-14%
O=C(COc1ccccc1Cl)NC(=O)NC1CCCCC1,-14%
CC(Oc1ccc2c3c(c(=O)oc2c1)CCCC3)C(=O)NCC(O)c1ccccc1 (configuration not stated),-10%
Cc1ccc(C)c(C(=O)COC(=O)Cn2c(C)csc2=O)c1,35%[activator]
CN(C)c1ccc(/C=N/NC(=O)c2nonc2N)cc1[N+](=O)[O-],-17%
CCCCn1c(C)cc(C)c(S(=O)(=O)c2ccccc2C)c1=O,-16%
COc1ccc(NC2c3ccccc3C(=O)N2c2ccccn2)cc1 (configuration not stated),13%
COc1ccc(N2CCN(CC(O)COc3ccccc3[N+](=O)[O-])CC2)cc1 (configuration not stated),6%
O=C(O)c1ccc(N2C(=O)c3cccc4cccc(c34)C2=O)cc1,-28%
COc1ccccc1-c1nnc(SCC(=O)NC2CCS(=O)(=O)C2)n1N (configuration not stated),14%
COc1ccccc1OCCN1CSC(=S)N(C)C1,-29%
COc1ccc(N(CC(=O)NC2CCCC2)C(=O)CCC(=O)Nc2cc(C)on2)cc1OC,-29%
CC(C)Oc1cccc(C(=O)C2CCCN(C(=O)c3cc(C(F)(F)F)[nH]n3)C2)c1 (configuration not stated),10%
Cc1cc(=O)oc2c(C(=O)c3ccccc3)c(OCC(N)=O)ccc12,-18%
O=C(NC1CCCC1)c1cccc2c1C(=O)c1ccc(N3CCCCC3)cc1S2(=O)=O,-7%
O=C(O)c1cnn(-c2nc(-c3ccc(Cl)c(Cl)c3)cs2)c1C(F)(F)F,?
Cc1nn(C)c(C(=O)N2CCN(C(=O)c3ccco3)CC2)c1Br,-24%
O=C(NNC(=O)C1CCCN(S(=O)(=O)c2ccc3ccccc3c2)C1)C1CC1 (configuration not stated),-4%
CC(=O)OC1CC2C(C)(C)C(=O)CC[C@]2(C)C2CC[C@]3(C)C(=CC(=O)OC3c3ccoc3)[C@]12C (some centres not stated),?
CCOC(=O)CC(=O)CSc1nc2sc(C)cc2c(=O)n1Cc1ccco1,1%
COc1ccc(C(=O)COC(=O)c2ccc3c(c2)OCCO3)c(OC)c1,-1%
O=C(CC(=O)c1cccc([N+](=O)[O-])c1)Nc1ccccc1Cl,-6%
Cc1oc(-c2cccc(Cl)c2)nc1CN1CCC(C(=O)NCc2ccco2)CC1,2%
O=C(NC1CCCC1)c1ccc(S(=O)(=O)N2CCOCC2)cc1,4%
Nc1ccc(-c2cc(-c3ccc(N)cc3)nc(-c3ccccc3)n2)cc1,8%
CC1CN(CCc2ccccc2)c2nc3c(c(=O)[nH]c(=O)n3C)n2C1 (configuration not stated),-1%
Cc1ccc(C)c(CSc2nnc(-c3cccnc3)n2N)c1,-11%
Cc1ccc2c(c1)N(CC(=O)NCCCN1CCCCC1)C(=O)c1cccnc1O2,-10%&18%
O=C1NC(CCc2ccccc2)C(=O)N1Cc1ccc(Br)cc1 (configuration not stated),-6%
CC(C)(C)C(=O)NC(=S)Nc1ccccc1C(N)=O,-2%
CC(=O)N1CCc2c(sc(NC(=O)CS(=O)(=O)c3ccc(F)cc3)c2C(N)=O)C1,?
Cc1cccc(NC(=O)c2cn(-c3ccccc3)nc2-c2ccccc2)c1C,-12%
COc1ccc(-c2noc(-c3ccc(N4CCN(c5ccc(OC)cc5)CC4)c([N+](=O)[O-])c3)n2)cc1,9%
O=C(CCN1C(=O)C2CC=C(Cl)CC2C1=O)NC1CCCCC1 (configuration not stated),-2%
CSc1cccc2sc(NC(=O)C3=COCCO3)nc12,26%
CCOC(=O)c1cccc(NC(=O)NCc2ccc3c(c2)CCN3C(=O)c2ccccc2)c1,2%
Cc1ccccc1C(=O)NC1(C(F)(F)F)C(=O)Nc2c1c(=O)[nH]c(=O)n2-c1ccc(F)cc1 (configuration not stated),-7%
NC(=O)Cc1nc(-c2ccc([N+](=O)[O-])cc2)cs1,6%
CCOC(=O)[C@@H]1[C@H]2COc3cc(OC)ccc3[C@H]2N2C(=O)N(c3ccc(C(F)(F)F)cc3)C(=O)[C@@]12C,-25%
CCN(CC(=O)NCc1ccccc1Cl)CC(=O)Nc1c(F)cccc1F,-1%
COc1ccc(-c2cc(C(C)=O)c(C)n2CCC(=O)NCc2ccc(C)cc2)cc1,10%
CCN(CC)CCN(C(=O)c1ccc2ccccc2c1)c1nc2cc3c(cc2s1)OCO3,2%
O=C1CCCN1CCCNS(=O)(=O)c1ccc(Cl)c(C(=O)N2CCOCC2)c1,-9%
C[C@H](NS(=O)(=O)c1ccc2c(c1)OCCCO2)C(=O)N1CCN(c2ccc(F)cc2)CC1,-19%
CN(C)S(=O)(=O)c1ccc(Cl)c(NC(=O)COC(=O)/C=C/c2ccco2)c1,0%
Cn1c([N+](=O)[O-])cnc1COC(N)=O,-12%&14%&3%
OCc1cc(C(O)CNCCCCCCOCCCCc2ccccc2)ccc1O (configuration not stated),1%&9%
CCc1ccccc1NC(=O)Nc1nnc(N(C)Cc2ccccc2)s1,2%
CC(=O)C1=C(C)NC(=O)NC1c1ccc2c(c1)OCO2 (configuration not stated),3%

# 3 of the compounds above, bar-delimited:
compound | VDR inh
CCCCn1c(N)c(N(CCOC)C(=O)COC(=O)c2ccccc2NCCO)c(=O)[nH]c1=O | -9%
O=C(NCC1OCCc2ccccc21)c1ccco1 (configuration not stated) | 32%[activator]
CCc1nnc(NC(=O)CSc2nc3c(c(=O)n2C)SC(C)C3)s1 (configuration not stated) | -27%

# Further results follow.
SMILES,VDR inh
Cc1ccc(Cl)cc1N1CCN(CCCNC(=O)Cn2ncc3c([nH]c4ccccc43)c2=O)CC1,-1%
COc1ccccc1NC(=O)c1cc(=O)c2ccc(C)c(C)c2o1,10%
O=C1NC[C@H](Cc2ccc(O)cc2)N(CCc2cccc3ccccc23)C1=O,6%
COc1ccccc1C(=O)NC(=O)COC(=O)c1cccc(NC(C)=O)c1,4%
O=S(=O)(c1ccc(Cl)cc1)N1CCN(Cc2cccnc2)CC1,16%
CCc1ccc(N(CC(=O)O)S(=O)(=O)c2c(C)noc2C)cc1,-9%
CCO[C@@H]1OC(C(=O)NCc2ccccc2)=C[C@H](c2csc3ccccc23)[C@H]1CCCO,-7%
C=CCn1c(C#N)c(N)sc1=N,-17%
COCCN(C(=O)C1=COCCO1)c1c(N)n(Cc2ccccc2)c(=O)[nH]c1=O,-6%
Cc1ccc(S(=O)(=O)n2ccc3cccnc32)cc1,-6%
N#CCCN(C(=O)COC(=O)CCc1nc2ccccc2c(=O)[nH]1)c1ccccc1F,-6%
CCC(=O)Nc1sc2c(c1C#N)CC(C)(C)NC2(C)C,-6%
CCOCCCn1c(=S)[nH]c2cc3c(cc2c1=O)OCO3,12%
C[C@H](NC(=O)c1nc[nH]c1C(=O)N1CCN(C(=O)OC(C)(C)C)CC1)c1ccccc1,-28%
COCCn1c(SCCN2CCCCC2)nc2ccccc2c1=O,-1%
O=S(=O)(c1ccc(Br)cc1)N1CCC2(CC1)OCCO2,-8%
CCCCn1c(N)c(N(CCOC)C(=O)COC(=O)c2cc(CC)c(C)s2)c(=O)[nH]c1=O,-14%
CCOc1ccccc1C(=O)NC1(C(F)(F)F)NC(=O)N(CCc2ccc(OC)c(OC)c2)C1=O (configuration not stated),8%
CCOC(=O)c1cc2c(nc1N)CC(C)(CC)OC2 (configuration not stated),5%
CCCOc1ccc(NC(=O)Cc2ccc(S(=O)(=O)N3CCOCC3)s2)cc1OCCC,-13%
Cc1ccc2[nH]c(C(=O)O)c(NC(=O)CN3CCN(c4cccc(C)c4C)CC3)c2c1,-24%
Cc1cc(Cl)ccc1Nc1ncnc2onc(C)c12,20%
Cn1cc(C(=O)NCc2ccccc2F)cn1,14%
CCc1nccn1S(=O)(=O)c1ccc(Br)cc1Br,1%
COC(=O)C1=C(C)N=C2SCCC(=O)N2C1/C=C/c1ccccc1 (configuration not stated),-6%
C=CCN(CC=C)C(=O)Cn1cnc([N+](=O)[O-])n1,-2%
CCOC(=O)c1cc(-c2ccccc2)nn1Cc1cc(CC)no1,-6%
O=C(Nc1cccc(-n2cnnn2)c1)c1cc(Cl)nc(Cl)c1,-12%
Cc1ccc(Cn2c(/C=C/c3ccco3)nc3ccccc32)cc1,-1%
Cc1ccc(-n2[nH]c(C)c(/C=N/N3C(=O)c4cccc5cccc(c45)C3=O)c2=O)cc1,1%
COc1ccc(CCNC(=O)CN(C)S(=O)(=O)c2cccc3nsnc23)cc1OC,7%
Cc1ccc(NC(=S)C2=C(O)c3sccc3N(C)S2(=O)=O)cc1,-21%
NC(=O)CN1C(=O)NC(c2ccccc2)(c2ccccc2)C1=O,4%
Cc1ccc(S(=O)(=O)CCC(=O)OCC(=O)Nc2cc(F)ccc2C)cc1,-2%
Cc1cc(OCC(=O)NNC(=O)c2cccnc2)cc(C)c1Cl,0%
COc1ccccc1-n1cc(CN2CCN(C3CCCCC3)C(CCO)C2)cn1 (configuration not stated),-10%
COC(=O)c1ccccc1NC(=O)CN(Cc1ccc(Cl)cc1)S(C)(=O)=O,-35%
COc1ccccc1NC(=O)N1CC=C(c2c[nH]c3ccccc23)CC1,-18%
CCSc1nnc(NC(=O)C(CC)Oc2ccccc2)s1 (configuration not stated),8%
Cc1ccc(-n2ncc3c(N4CCCC4)ncnc32)c(C)c1,-3%
Cc1cc(C(=O)N/N=C/c2cc(Cl)cc([N+](=O)[O-])c2O)c2ccccc2n1,3%
COc1ccc(-n2c(SC3CCOC3=O)nc3ccccc32)cc1 (configuration not stated),-7%
CC(C)[C@H](NC(=O)c1ccccc1Cl)C(=O)OCc1cc(=O)n2cc(Br)ccc2n1,-4%
COc1ccc(-c2nnc(SCCC(=O)O)n2-c2ccccc2)cc1,2%
COc1ccc(-c2noc(-c3ccccc3-c3ccccc3)n2)cc1OC,1%
Cc1ccc2nc(C)cc(Cl)c2c1,15%
CCC(c1nnnn1CCOC)N1CCN(C(=O)c2ccco2)CC1 (configuration not stated),6%
CCOC(=O)C1=C(CNCc2ccc(Cl)cc2)NC(=O)NC1c1ccccc1 (configuration not stated),4%
COc1ccc(N2CCN(C(=O)CC3NC4CCCCC4NC3=O)CC2)cc1 (configuration not stated),12%
O=C(Nc1cccn2ncnc12)c1ccc(Cl)cc1Cl,-1%
O=C(OCC(=O)N1CCCC1)c1ccc(S(=O)(=O)N2CCOCC2)cc1,2%
Cc1ccc2c(c1)c(=O)c(C(=O)c1ccncc1)cn2CC(=O)Nc1ccc(C(C)C)cc1,7%
CCOC(=O)c1c(NC(=O)C2COc3ccccc3O2)sc(C(C)=O)c1C (configuration not stated),-14%
O=C(Nc1ccccc1F)c1ccc(Cn2cc(Br)cn2)cc1,16%
Clc1ccc(CNCCCSc2ncccn2)cc1,-6%
Cc1ccc(CSCCNC(=O)c2ccc(NS(C)(=O)=O)cc2)cc1,15%
Cc1cc(N)n2ncc(-c3cccc(Br)c3)c2n1,6%
